TRPML1 agonist – qHTS for Agonists of the Human Mucolipin Transient Receptor Potential 1 (TRPML1); Mucolipin-1 (Homo sapiens), Q9GZU1; TRPML1-expressing cells, Ca2+ dye fluorescence, FDSS; host cell line not named in the record; reference of the full effect not given here; 410,000 tested, 0.12% active; activation, % (test concentration not listed); in the data active = activation above about 50%; inconclusive = about 30% to 50%; inactive = below about 30%; note: 0% is about no effect; the text of the record puts the active cut at 80%
Target sequence (Q9GZU1 whole entry, looked up): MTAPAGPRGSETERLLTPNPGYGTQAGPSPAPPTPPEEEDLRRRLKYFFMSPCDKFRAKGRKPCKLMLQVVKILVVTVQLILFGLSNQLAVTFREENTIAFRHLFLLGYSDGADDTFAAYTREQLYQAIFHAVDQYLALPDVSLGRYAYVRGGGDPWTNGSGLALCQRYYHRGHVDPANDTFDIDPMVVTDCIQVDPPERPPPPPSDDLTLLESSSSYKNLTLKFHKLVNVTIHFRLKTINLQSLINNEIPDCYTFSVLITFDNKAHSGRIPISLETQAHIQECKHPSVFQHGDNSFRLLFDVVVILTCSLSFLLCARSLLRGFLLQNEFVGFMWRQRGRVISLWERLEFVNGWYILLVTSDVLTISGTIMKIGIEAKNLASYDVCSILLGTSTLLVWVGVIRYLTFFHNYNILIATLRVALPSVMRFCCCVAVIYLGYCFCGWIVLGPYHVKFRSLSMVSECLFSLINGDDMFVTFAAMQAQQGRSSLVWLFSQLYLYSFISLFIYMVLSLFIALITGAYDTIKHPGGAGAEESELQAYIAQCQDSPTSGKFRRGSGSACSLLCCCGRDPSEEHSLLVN
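Agonist activity was taken from a 110 s kinetic Ca2+ dye read on the FDSS after pinning compounds onto TRPML1-DL cells. The cells were seeded at 1,500/well with Tet inducer, incubated about 16 h, then dye-loaded at room temperature.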
PINK1 expr mod – A Quantitative High throughput Screen to Identify Chemical Modulators of PINK1 Expression; Potency, µM (highest dose often 76.6 µM), inactives show at the top dose activation (PINK1 increase), actives largely listed as activators; 410,000 tested, 0.2% active; AID 624263, 2012; PINK1 immunofluorescence, high-content cytometry, 24 h; active = well fitted activation curve with a large enough effect; inconclusive = small, poorly fitted or top-dose-only effect; inactive = flat fitted curve, though single readings scatter; cell line not stated here;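 note: potency is the fitted concentration of half-maximal effect; % of control where 0% means no effect; nearly all actives have a fitted effect of over 65% in size; a mitochondrial uncoupler was the plate control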
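Stable cell line treated 24 h with compounds at 5 concentrations (CCCP controls), then fixed and immunostained for PINK1 plus nuclear and cell stains; PINK1 immunofluorescence quantified by laser-scanning microplate cytometry.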
D2 agonist – Beta-Arrestin HTS for Positive Allosteric Modulators of the Human D2 Dopamine Receptor: Agonists | D(2) dopamine receptor (Homo sapiens), P14416 | DiscoveRx PathHunter D2 beta-arrestin, luminescence, 90 min; 100% = 57 uM dopamine signal | activation, % (test concentration not listed) | 360,000 tested, 0.084% active | AID 624465, 2012; in the data active = activation above about 40%; inconclusive = about 15% to 40%; inactive = below about 15%; note: compound concentration not given in the record; the text of the record calls up to 30% inactive
Target sequence (P14416 whole entry, looked up): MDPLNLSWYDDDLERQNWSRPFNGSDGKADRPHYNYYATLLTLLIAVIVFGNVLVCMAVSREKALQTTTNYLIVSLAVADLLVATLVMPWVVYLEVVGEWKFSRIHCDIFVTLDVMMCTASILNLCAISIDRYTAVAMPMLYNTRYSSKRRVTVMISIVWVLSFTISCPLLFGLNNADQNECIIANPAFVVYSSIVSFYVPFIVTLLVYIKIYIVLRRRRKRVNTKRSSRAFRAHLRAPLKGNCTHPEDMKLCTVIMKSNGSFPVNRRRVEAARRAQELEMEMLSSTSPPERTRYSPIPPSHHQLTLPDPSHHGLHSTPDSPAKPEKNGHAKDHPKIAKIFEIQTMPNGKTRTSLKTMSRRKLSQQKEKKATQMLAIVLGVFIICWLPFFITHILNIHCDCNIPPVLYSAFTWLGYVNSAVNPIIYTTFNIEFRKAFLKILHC
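Agonist mode: compounds alone added to overnight-plated D2 PathHunter cells for 90 min at 37 C, with 57 uM final dopamine (EC100) defining full response. Beta-arrestin recruitment detected by chemiluminescent reagent, read after 1 h at ambient temperature.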
TRPML1 inh – qHTS for Inhibitors of the Human Mucolipin Transient Receptor Potential 1 (TRPML1) | TRPML1-inducible cells, Ca2+ dye fluorescence, FDSS; active compounds read low; inhibition of EC80 agonist-evoked calcium signal | activity change, negative = inhibition, % (concentration not given with the values) | 390,000 tested, 0.02% active; in the data active means activity change below about -50%; inconclusive means about -30% to -50%; inactive means above about -30%;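 note: stimulus is agonist 54-4 at its EC80 concentration; % is set by controls: 0 for no effect and ±100 for the full control effect; the text of the record puts the active cut at -80%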
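Tet-induced TRPML1-DL cells loaded with Ca8 no-wash calcium dye were read kinetically on FDSS. Compound addition was followed by EC80 agonist 54-4 (4 uM final); inhibition was read over 110 s.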
D2 PAM – Beta-Arrestin HTS for Positive Allosteric Modulators of the Human D2 Dopamine Receptor: Potentiators; D(2) dopamine receptor (Homo sapiens), P14416; DiscoveRx D2 beta-arrestin cells, luminescence, 90 min; 100% = 57 uM dopamine signal; potentiation, % (no concentration beside the values); 360,000 tested, 0.23% active; AID 624464, 2012; active = potentiation of 50% or more; inconclusive = 30% to 50%; inactive = 30% or less;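 note: compound concentration not given in the record; tested on top of an EC20 dose of dopamine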
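PathHunter beta-arrestin assay in DiscoveRx D2 cells. Compounds were added with an EC20 of dopamine (50 nM final) for 90 min at 37 deg C. Luminescence was read 1 h after detection reagent, with 57 uM dopamine as the EC100 control.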
Six1-Eya2 inh – qHTS Assay for Inhibitors of the Six1/Eya2 Interaction. AID 651725, 2012. activity change, % (no concentration beside the values). 360,000 tested, 0.56% active. AlphaScreen GST-Six1/His-Eya2 binding, biochemical; active compounds read low; control for the full effect not named in the record. Homeobox protein SIX1 (Homo sapiens) + Protein phosphatase EYA2 (Homo sapiens), …; in the data active = activity change below about -65%; inconclusive = about -30% to -65%; inactive = above about -30%; note: % is set by controls: 0 for no effect and ±100 for the full control effect
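Six1/Eya2 binding was read as AlphaScreen signal after compounds were pinned into GST-Six1 plus His-tagged Eya2 (5X stock 250/500 nM) in pH 8.0 Tris/NaCl/TCEP buffer, beads added, then incubated 1 h, 37 C, dark.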
Active calls of the source: *; ? = inconclusive; / = no result given; & = joins results of further samples; [ ] = remark or other dose.

SMILES	TRPML1 agonist	PINK1 expr mod	D2 agonist	TRPML1 inh	D2 PAM	Six1-Eya2 inh
N#C/C(=C\c1ccc(N2CCOCC2)o1)C(=O)N1CCOCC1	19	-0.6%	-1.6	9	-3	-8
O=C(c1cc(-c2ccccc2Cl)nc2ccccc12)N1CCOCC1	1.6	-1.9%	-5.1	3	-17	1
Cc1cc(C)cc(-n2nnc(C(=O)NCc3ccccc3)c2N)c1	6.1	-3.8%	-0.9	-1	-12	13
CCCC(=O)Nc1ccc(C(=O)COC(=O)C2=COCCO2)cc1	-0.2	2.0%	-3.4	-11	19	-1
COc1ccc(Br)cc1CNC(=O)Cn1nc(C)n2c(cc3cc(F)ccc32)c1=O	-0.4	2.9%	/	-2	/	/
CCCNC(=O)COc1coc(CN2CCN(Cc3ccccc3)CC2)cc1=O	-0.3	0.6%	-3.1	-1	-5	0
CCc1c(O)nc(SCC(=O)NCc2ccco2)[nH]c1=O	0.1	1.7%	0.5	13	-5	0
COC(=O)[C@H](CCSC)NC(=O)NCCc1ccc(F)cc1	-0.6	2.7%[38.3 µM]	-2.2	-3	-5	3
Cc1ccc(-n2c(C)nn(-c3ncc(C(F)(F)F)cc3Cl)c2=O)cc1	4.4	-1.6%	-2.5	-11	-3	0
CN(C)c1nc(N(C)C)c2cnn(C)c2n1	0.0	1.6%	-2.8	14	-2	7
CCOCCCNc1ncnc2onc(C)c12	0.6	-3.2%	/	-10	/	/
Cn1nc(-c2ccc(Cl)cc2)c2cc(C(=O)NCCN3CCOCC3)sc21	0.3	2.2%	-6.7	0	-11	?
Cc1cccc(OCC(=O)NS(=O)(=O)c2ccc(Br)cc2)c1	-0.1	-1.5%	-5.6	-2	-5	-5
C#CCOCCOCCOCCNc1nc(N2CCN(C(=O)[C@H](CCCCN)n3cc([C@@H](N)C(C)CC)nn3)CC2)nc(N2CCN(C(=O)[C@H](Cc3cc4ccccc4[nH]3)n3cc([C@@H](N)CC(C)C)nn3)CC2)n1 (stereo partly specified)	0.5	-1.3%	-2.7	-3	-16	2
COc1ccc(C(=O)OCCN2C(=O)c3ccccc3C2=O)cc1OC	1.5	2.2%	4.5	-13	3	3

Two of the compounds above, bar-delimited:
mol | TRPML1 agonist | PINK1 expr mod | D2 agonist | TRPML1 inh | D2 PAM | Six1-Eya2 inh
COc1ccc(C(=O)OCCN2C(=O)c3ccccc3C2=O)cc1OC | 1.5 | 2.2% | 4.5 | -13 | 3 | 3
CCc1c(O)nc(SCC(=O)NCc2ccco2)[nH]c1=O | 0.1 | 1.7% | 0.5 | 13 | -5 | 0

Next section
SMILES	TRPML1 agonist	PINK1 expr mod	D2 agonist	TRPML1 inh	D2 PAM	Six1-Eya2 inh
O=C(Nc1ccn(Cc2c(F)c(F)cc(F)c2F)n1)c1ccc(COc2cc(Cl)ccc2Cl)o1	2.2	?	0.7	27	0	-2
CC(=O)N1CN(C2CCCC2)Cc2c1sc1c2CCCC1	0.2	1.7%[38.3 µM]	-4.0	31	-18	1
COc1ccc(C(=O)NCc2ccc3[nH]c(C)cc3c2)cc1OC	0.4	3.0%	-7.5	7	-6	-6
COC(=O)c1cnn(-c2ccc(C)c(C)c2)c1-n1cccc1	0.7	5.6%[38.3 µM]	-3.4	-8	-2	3
CCCCNC(=O)C(CC)Sc1nc2ccccc2c(=O)n1Cc1ccco1 (stereo unspecified)	1.4	9.6%	/	-17	/	/
COc1ccc(C)cc1NC(=O)C(OC(=O)c1ccc([N+](=O)[O-])o1)c1ccccc1 (stereo unspecified)	5.6	-2.2%	7.2	15	9	-16
CCn1ccc2c(OCC(=O)Nc3ccc(C)c(Cl)c3)cccc2c1=O	-0.2	2.4%	/	-13	/	/
CCCCNC(=S)N(CCN(CC)CC)Cc1cc2cc3c(cc2[nH]c1=O)OCCO3	0.1	6.1%	-1.5	1	-2	-10
C=CCn1c(Cc2cccs2)nnc1SCC(=O)c1cccc(Br)c1	0.5	4.2%	-2.5	6	-2	0
C/C(N)=C(/C#N)C(=O)CSc1nnc(Nc2cccc(C)c2)s1	-0.4&1.5	?	3.8&-1.4	0&-19	-13&-18	?
Fc1ccc(C(c2nnnn2Cc2cccs2)N2CCN(c3ccccc3)CC2)cc1 (stereo unspecified)	-0.1	0.0%	-6.1	13	-22	-17
Cn1cc([N+](=O)[O-])c(C(=O)NCc2cc3cc(Cl)ccc3[nH]2)n1	0.1	4.2%	2.1	-11	-7	-20
CCn1cc2nc(SCc3c(F)cccc3Cl)n(CCc3ccccc3)c(=O)c2n1	-0.4	28%	/	-2	/	/
CSC1=NCCN1C(=O)c1ccc2c(c1)OCO2	0.2	0.2%	-0.4	-9	-12	5
CCC(=O)N1c2ccc(S(=O)(=O)N3CCN(c4cc(C)ccc4C)CC3)cc2CC1C (stereo unspecified)	-0.3	-0.7%	1.2	36	-4	-1
COc1ccc(C2CC(c3cccs3)=NN2c2nc(-c3ccccc3)cs2)cc1OC (stereo unspecified)	-0.3	/	0.9	4	-12	6
Cc1ccc(S(=O)(=O)NCCSc2nnnn2-c2ccc(C(N)=O)cc2)cc1	-0.6	0.9%	-0.1	-9	-3	0
CC1(C(=O)NS(=O)(=O)C2CC2)CCN(C(=O)c2ccc3c(c2)OCO3)C1 (stereo unspecified)	-0.6	0.4%	-2.1	/	-6	3
Cc1ccnc(NC(=O)Nc2cccc(F)c2)c1	-0.2	/	3.8	-9	-16	5
COc1cc(NC(=O)C2CC2)c(C(=O)O)cc1OC	0.1	1.3%	-0.3	6	1	2
COc1cccc(CN2CCC2(C)C(=O)Nc2cccc(Oc3ccccc3)c2)c1OC (stereo unspecified)	-0.2	4.3%	6.5	/	-3	0
O=C(NCCc1ccco1)C(=O)NCC1CCCN1S(=O)(=O)c1ccccc1 (stereo unspecified)	1.7	4.1%	2.5	15	-3	-3
COc1cc(SC)ccc1C(=O)N1CCN(c2ccccc2OC)CC1	-0.5	10.0%	-5.1	29	-6	-1
COc1ccc(C2(C(=O)Nc3ccccc3)CCOCC2)cc1	0.2	-0.5%	-3.6	-18	-17	-8
CCOc1cc(C(C(=O)NCC2CCCO2)N(C(=O)Cn2nnc3ccccc32)c2ccc(C(C)=O)cc2)ccc1O (stereo unspecified)	-1.2	1.2%	-1.9	2	3	0
CCN(Cc1ccccc1)C(=O)c1cn(-c2cccc(OC)c2)c(=O)c2ccccc12	0.7	0.6%	/	-16	/	/
COc1cc(OC)c2ccc(=O)oc2c1	-0.3	0.1%	0.5	-4	-6	4
O=c1oc(-c2ccc(Br)o2)nc2ccccc12	0.4	0.0%[38.3 µM]	-4.3	-8	-15	-1
Cc1ccsc1CN(C)C(=O)C1CCC(=O)N(CCc2cccc(F)c2)C1 (stereo unspecified)	1.0	-0.2%	4.8	-6	-2	-1
O=C(Nc1ccccc1F)c1cc(-c2ccco2)nc2ccccc12	-0.6	11%	-5.7	-1	-2	-29

For reference, part of the list above.
SMILES	TRPML1 agonist	PINK1 expr mod	D2 agonist	TRPML1 inh	D2 PAM	Six1-Eya2 inh
CCn1cc2nc(SCc3c(F)cccc3Cl)n(CCc3ccccc3)c(=O)c2n1	-0.4	28%	/	-2	/	/
CSC1=NCCN1C(=O)c1ccc2c(c1)OCO2	0.2	0.2%	-0.4	-9	-12	5
CCC(=O)N1c2ccc(S(=O)(=O)N3CCN(c4cc(C)ccc4C)CC3)cc2CC1C (stereo unspecified)	-0.3	-0.7%	1.2	36	-4	-1
COc1ccc(C2CC(c3cccs3)=NN2c2nc(-c3ccccc3)cs2)cc1OC (stereo unspecified)	-0.3	/	0.9	4	-12	6
Cc1ccc(S(=O)(=O)NCCSc2nnnn2-c2ccc(C(N)=O)cc2)cc1	-0.6	0.9%	-0.1	-9	-3	0
CC1(C(=O)NS(=O)(=O)C2CC2)CCN(C(=O)c2ccc3c(c2)OCO3)C1 (stereo unspecified)	-0.6	0.4%	-2.1	/	-6	3
Cc1ccnc(NC(=O)Nc2cccc(F)c2)c1	-0.2	/	3.8	-9	-16	5
COc1cc(NC(=O)C2CC2)c(C(=O)O)cc1OC	0.1	1.3%	-0.3	6	1	2
COc1cccc(CN2CCC2(C)C(=O)Nc2cccc(Oc3ccccc3)c2)c1OC (stereo unspecified)	-0.2	4.3%	6.5	/	-3	0
O=C(NCCc1ccco1)C(=O)NCC1CCCN1S(=O)(=O)c1ccccc1 (stereo unspecified)	1.7	4.1%	2.5	15	-3	-3
COc1cc(SC)ccc1C(=O)N1CCN(c2ccccc2OC)CC1	-0.5	10.0%	-5.1	29	-6	-1
COc1ccc(C2(C(=O)Nc3ccccc3)CCOCC2)cc1	0.2	-0.5%	-3.6	-18	-17	-8
CCOc1cc(C(C(=O)NCC2CCCO2)N(C(=O)Cn2nnc3ccccc32)c2ccc(C(C)=O)cc2)ccc1O (stereo unspecified)	-1.2	1.2%	-1.9	2	3	0
CCN(Cc1ccccc1)C(=O)c1cn(-c2cccc(OC)c2)c(=O)c2ccccc12	0.7	0.6%	/	-16	/	/
COc1cc(OC)c2ccc(=O)oc2c1	-0.3	0.1%	0.5	-4	-6	4

New compounds follow
SMILES	TRPML1 agonist	PINK1 expr mod	D2 agonist	TRPML1 inh	D2 PAM	Six1-Eya2 inh
Cc1cc(C)n(C(=O)CNC(=O)c2ccc(C(C)(C)C)cc2)n1	1.4	1.1%	2.8	-4	-9	-2
O=c1[nH]c(SCC2CCCCO2)nc2ccccc12 (stereo unspecified)	-0.1	8.2%[38.3 µM]	-3.3	-1	-12	-1
CC(C)c1ccc(NC(=O)C2(C)Cc3c(-c4cccc(C(F)(F)F)c4)ccnc3O2)cc1 (stereo unspecified)	0.2	9.6%	-2.8	/	1	-4
Cc1ccc(N2C(=O)CC(C)CC2=O)cc1	-0.6	-0.9%	0.8	-14	-5	8
CC1CCCN(C(=O)CSc2cnc3ccccc3n2)C1 (stereo unspecified)	-0.3	7.0%[38.3 µM]	-3.0	7	-23	0
Cc1ccc(NC(=O)/C(=C/c2ccncc2)NC(=O)c2ccccc2)cc1	-1.8	-0.8%	-1.2	-3	-7	1
CCOc1ccc(NC2=NC(C)(C)N=C(N)N2)cc1	-0.3	-2.0%	-5.1	-1	-2	14
Cc1cc(=O)oc2c(C)c(OC(C)C(=O)Nc3ccc(N4CCC(C)CC4)cc3)ccc12 (stereo unspecified)	0.7	5.5%	0.4	4	-7	-4
O=C(Cn1ccc(=O)[nH]c1=O)Nc1ccc(C(=O)O)c(O)c1	-0.4	1.6%	-2.8	-4	-15	2
O=C(Nc1ccc(Cl)cn1)c1ccc2nccnc2c1	-0.3	2.9%	-1.5	16	3	0
CCN1CCCC(OC(=O)c2cc(-c3ccccc3Cl)nc3ccccc23)C1 (stereo unspecified)	0.5	?	-7.4	9	-13	-3

Bioassay records (PubChem)

An unsorted share of the library; any-hit rate near 1%.
